HTT prom inh – Primary qHTS for Identification of Small Molecule Inhibitors of Huntingtin Promoter Activity | HEK293 HTT promoter firefly luciferase reporter (activity 0% = vehicle and -100% = no light), 24 h | Potency, µM (highest dose often 57.5 µM), inactives show top-dose activity change, negative = inhibition, actives largely listed as inhibitors | 48,000 compounds, 0.93% hits; active = well fitted inhibition curve with a large enough effect; inconclusive = small, poorly fitted or top-dose-only effect; inactive = no such curve, though single readings can be large or run the other way; also: nearly all actives have a fitted effect of over 50% in size
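HEK293 cells carrying firefly luciferase reporters were seeded at 2,500 per well in Opti-MEM and cultured for 24 h. They were then treated with compounds at up to 57.5 uM final for 24 h at 37 degrees C before Dual-Glo luminescence readout.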
PMP22 txn prim – Cell-based coincidence reporter assay to measure PMP22 gene transcription in S16 Pmp22-F2sN cells - Primary screen | S16 Pmp22-F2sN Schwann cells (luciferase reporters placed in the Pmp22 gene), FLuc/NLuc coincidence luminescence, 24 h | Potency, µM (top dose mostly 57.5 µM), without a hit: at the top dose activity change, negative = inhibition, most hits filed as inhibitors | 43,000 compounds, 2% hits; active = clear falling dose curves in both reporters; inconclusive = both reporters move, but less clearly or upward; inactive = either reporter flat; the % is the NLuc reporter signal; also: % is scaled to controls: 0 for no effect and ±100 for the full control effect; some results filed as inactive show a strong effect at the top dose
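Schwann cells carrying the coincidence reporter were exposed to library compounds for 24 h at 37C, then lysed and read for FLuc and, after quenching, NLuc luminescence on a CCD imager.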
An asterisk follows results filed as active; ? = inconclusive; · = no result given; & = joins results of further samples; [ ] = remark or other dose. Potency is read from the fitted curve at half-maximal effect.

SMILES | HTT prom inh | PMP22 txn prim
CCC(C)NC(=O)c1[nH]c2cc(C)ccc2c1Sc1ccc(Cl)cc1 (stereo not drawn) | 31%[activator] | -5%
Cc1c(C(=O)NN2CCCCC2)nn(-c2ccc(Cl)cc2Cl)c1-c1ccc(Cl)cc1 | ? | ·
CCC(=O)Nc1ccccc1-c1nc2ccccc2n(C(C)C(=O)Nc2ccc(OC)cc2)c1=O (stereo not drawn) | 47%[activator] | 12%
Cc1ccc(CCNC(=O)c2cn(C)c3ccc(S(=O)(=O)N4CCC(C)CC4)cc3c2=O)cc1 | 1% | -13%
COc1ccc(-c2nc(C)c(CCNC(=O)C(=O)Nc3ccccc3F)s2)cc1 | -2% | ?
COCCCNC(=O)c1nn(C)c2c1CS(=O)(=O)c1ccccc1-2 | -12% | ?
COc1ccc(-n2nc3c(N4CCC(C(=O)NCc5cccc(F)c5)CC4)nnc(C)c3c2C)cc1 | ? | ?
Cn1c(-c2ccc(S(=O)(=O)N3CCCC3)cc2)csc1=Nc1ccc(Cl)c(Cl)c1 | 5µM* | ?
Cc1ccc(CNC(=O)c2sc3nc[nH]c(=O)c3c2C)cc1 | -10% | -3%
CCOC(=O)c1ccc2oc(=O)n(Cc3ccccc3)c2c1 | 0% | ?
Cc1ccc2c(=O)cc(C(=O)Nc3ccc(S(=O)(=O)N(C)Cc4ccccc4)cc3)oc2c1C | -11% | -16%
O=C(CSc1nnc2ccc3ccccc3n12)c1ccc(F)cc1 | 73%[activator] | -4%
Cc1ccc(Cn2c(C(C)NC(=O)c3ccccc3)nc3ccccc32)cc1 (stereo not drawn) | -22% | -2%
CCc1ccc(NS(=O)(=O)c2ccc3[nH]cc(C(=O)NC4CCCC4)c(=O)c3c2)cc1 | -17% | -31%
CCCCCCCC(=O)[O-].CCCCCCCC(=O)[O-].[Zn+2] | 6% | ·
O=C(Cn1cnc2c(oc3ccccc32)c1=O)Nc1ccc(OC(F)(F)F)cc1 | 1% | ?
Cc1ccc(C(=O)c2cn(CC(=O)NCc3ccccc3Cl)c3nc(C)ccc3c2=O)cc1 | -5% | 5%
Cc1ccc(NC(=O)[C@H](Cc2ccccc2)N2Cc3ccccc3C2=O)cc1F | -7% | 4%
Cc1c(CNCCc2ccc(S(N)(=O)=O)cc2)c(C(=O)O)c(C)n1Cc1ccc(Cl)cc1 | 8% | -26%
CCOc1ccc(CCNC(=O)CSc2cc(=O)n(C)c3ccccc23)cc1OCC | -16% | ?
Cc1nc(-c2ccccc2)sc1CCNS(=O)(=O)c1ccccc1 | -19% | -63%
Cn1cc(S(=O)(=O)N2CCCCCC2)cc1C(=O)NCc1ccccc1Cl | ? | -17%
N#Cc1ccccc1Cn1c(=O)n(-c2ccccc2)c(=O)c2c3c(sc21)CCC3 | 11% | -7%
CC(C)CNC(=O)N1CCN(S(=O)(=O)c2ccc3c(ccn3C)c2)CC1 | -32% | -3%
CCOC(=O)N1CCC(NC(=O)c2c(C)nn(-c3ccc(C)cc3)c2-n2cccc2)CC1 | -20% | ?
Cc1ccc(Cl)cc1N1CCN(C(=O)c2sc3nc4n(c(=O)c3c2C)CCC4)CC1 | 0% | 0%
Cc1cccc(NC(=O)CCc2c(C)nc3nc(CNC(=O)c4cccc(F)c4)nn3c2C)c1 | 19% | -6%
Cn1c(=O)c2c(n3c4ccccc4nc13)NC(=O)CC2c1cccc(F)c1 (stereo not drawn) | -6% | -25%
COC(=O)N[C@H](C(=O)N[C@@H](Cc1ccccc1)[C@@H](O)CN(Cc1ccc(-c2ccccn2)cc1)NC(=O)[C@@H](NC(=O)OC)C(C)(C)C)C(C)(C)C | -5%&-7% | ·
Cc1c(C(=O)NCc2ccccc2)oc2c1-c1[nH]ncc1CC2 | 15% | -9%
COc1cc(CCC(=O)NCc2ccc3c(c2)CCN3C(=O)c2ccc(F)cc2)cc(OC)c1OC | -2% | -6%
Cc1ccc(-c2nnc(SCc3ccccc3C)o2)cc1 | 62%[activator] | -11%
CCOc1cc(C2c3c(oc4ccc(F)cc4c3=O)C(=O)N2Cc2ccc(C)cc2)ccc1O (stereo not drawn) | 7% | -25%
Cc1ccc(S(=O)(=O)NCC(c2ccco2)N2CCOCC2)cc1 (stereo not drawn) | -13% | -24%
CCOC(=O)c1c(C)[nH]c(C)c1S(=O)(=O)N(C)CC(=O)Nc1ccc(C)c(N(C)C)c1 | -33% | ?
CCCCOC(=O)CC(CC(=O)OCCCC)(OC(C)=O)C(=O)OCCCC | 1% | ·
Cc1ccc(Cn2c(SCc3ccc(C(=O)NCCc4ccccc4)cc3)nc3ccncc32)cc1 | -24% | ?
Cc1ccc(Nc2cc(C(=O)NCc3cccs3)c3ccccc3n2)c(C)c1 | 6% | -20%
CCc1ccc(NC(=O)CSc2nc3c([nH]c4ccccc43)c(=O)n2C)cc1 | -7% | ?
Cc1ccc(C)c(N2CCN(C3(c4ccccc4)C(=O)c4ccccc4C3=O)CC2)c1 | -26% | -15%
CCOC(=O)c1c(NC(=O)CSc2cn(CCNC(=O)c3ccccc3OC)c3ccccc23)sc2c1CCC2 | -27% | ?
COc1ccc(-c2cc(C(F)(F)F)nc(SCC(=O)N3CCCCC3)n2)cc1 | -8% | -18%
COc1cccc(N2CCN(C(=O)c3cnn(C(C)(C)C)c3C3CCN(C(=O)OC(C)(C)C)CC3)CC2)c1 | -19% | -23%
COC(=O)c1c(C)oc2ccc(N(C(=O)c3ccncc3)S(=O)(=O)c3c(C)cc(C)cc3C)cc12 | ? | 3.8µM*
COc1ccc(OC)c(CNC(=O)C2COc3ccccc3C2)c1 (stereo not drawn) | -9% | -11%

Complete entries, looked up by structure. Values in the order: HTT prom inh | PMP22 txn prim
Cc1ccc(-c2nnc(SCc3ccccc3C)o2)cc1 reads 62%[activator] | -11%
CCOC(=O)c1c(C)[nH]c(C)c1S(=O)(=O)N(C)CC(=O)Nc1ccc(C)c(N(C)C)c1 reads -33% | ?
COc1cccc(N2CCN(C(=O)c3cnn(C(C)(C)C)c3C3CCN(C(=O)OC(C)(C)C)CC3)CC2)c1 reads -19% | -23%

7 compounds from above, ordered by molar mass, lowest first.
SMILES | HTT prom inh | PMP22 txn prim
Cc1ccc(S(=O)(=O)NCC(c2ccco2)N2CCOCC2)cc1 (stereo not drawn) | -13% | -24%
Cc1ccc(Nc2cc(C(=O)NCc3cccs3)c3ccccc3n2)c(C)c1 | 6% | -20%
CCc1ccc(NC(=O)CSc2nc3c([nH]c4ccccc43)c(=O)n2C)cc1 | -7% | ?
CCOC(=O)c1c(C)[nH]c(C)c1S(=O)(=O)N(C)CC(=O)Nc1ccc(C)c(N(C)C)c1 | -33% | ?
CCOc1cc(C2c3c(oc4ccc(F)cc4c3=O)C(=O)N2Cc2ccc(C)cc2)ccc1O (stereo not drawn) | 7% | -25%
COc1cc(CCC(=O)NCc2ccc3c(c2)CCN3C(=O)c2ccc(F)cc2)cc(OC)c1OC | -2% | -6%
CCOC(=O)c1c(NC(=O)CSc2cn(CCNC(=O)c3ccccc3OC)c3ccccc23)sc2c1CCC2 | -27% | ?

Following part.
SMILES | HTT prom inh | PMP22 txn prim
CCn1ccc2cc(S(=O)(=O)N3CCCN(C(=O)Nc4ccccc4F)CC3)ccc21 | -20% | 21%
COc1ccc(N2Cc3cccc(C(=O)Nc4ccc(C)c(C)c4)c3C2=O)cc1 | 3% | -10%
O=C1CN(C(=O)Cc2ccccc2)C(c2ccc(F)cc2)c2cc(Br)ccc2N1 (stereo not drawn) | ? | -15%
CCc1cccc(-n2c(=O)c3cccnc3n2CC(=O)NCc2ccccc2Cl)c1 | -26% | -6%
Cc1ccc(-n2ncc3c(Nc4ccc(Oc5ccccc5)cc4)ncnc32)cc1 | -6% | ?
Cc1ccc(C)c(N2CCN(C(=O)C3CCN(S(=O)(=O)c4cn(C)cn4)CC3)CC2)c1 | -18% | 20%
COc1ccc(NC(=O)Nc2cn(CC(C)C)c(=O)c3ccccc23)c(OC)c1 | -15% | 53%
CC1=C(CC(=O)O)c2cc(F)ccc2/C1=C\c1ccc(S(C)=O)cc1 (stereo not drawn) | 8% | ·
CC(C)Cn1cc(NC(=O)N2CCN(c3ccccc3F)CC2)c2ccccc2c1=O | -9% | 5%
COc1ccc2c(c1)c1c(c(=O)n(-c3ccc(F)c(Cl)c3)c(=O)n1Cc1ccccc1C)n2C | -2% | -6%
CCCN1CCN(CC2=C(C(=O)OCC)C(c3ccc(OC(C)C)cc3)NC(=O)N2)CC1 (stereo not drawn) | 0% | -17%
CCOc1ccc(-n2cc(-c3ccccc3)c3c(NC4CCCC4)ncnc32)cc1 | -14% | ?
CN(c1ncccc1CNc1nc(Nc2ccc3c(c2)CC(=O)N3)ncc1C(F)(F)F)S(C)(=O)=O | ? | ·
Cc1ccc(S(=O)(=O)c2nnn3c2nc(NCc2ccc4c(c2)OCO4)c2sccc23)cc1 | -13% | ?
COc1ccccc1N1CCN(c2ncnc3c2c(-c2ccccc2)cn3-c2cccc(Cl)c2)CC1 | -26% | -3%
CC1CCC(NC(=O)c2ccc3c(c2)N(Cc2ccccc2F)C(=O)c2ccccc2S3=O)CC1 (stereo not drawn) | 4% | -3%
Cc1cc(C)c2c(N)c(C(=O)Nc3ccccc3C(F)(F)F)sc2n1 | 18% | -15%
COC(=O)C1=C(C)NC(C)=C(C(=O)OC)C1c1ccccc1[N+](=O)[O-] | 9% | ·
CCOc1ccc(NC(=O)CSc2oc(-c3ccco3)nc2S(=O)(=O)c2ccccc2)cc1 | ? | -19%
CSc1ccc(CCNC(=O)CCn2c(=O)c3cccn3c3cccnc32)cc1 | 0% | -23%
O=C(NCC(c1ccc2c(c1)OCO2)N1CCOCC1)c1ccccc1 (stereo not drawn) | -16% | 24%
Cc1ccc2c(c1)C(C)(c1ccccc1)CC(C)(C)N2C(=O)c1ccc(F)cc1 (stereo not drawn) | ? | ?
CSc1ccc(CNc2ncc(-c3ccccc3)n2C)cc1 | -21% | -24%
CC(C)Oc1ccc(CNC(=O)c2ccc(NC(=O)N3CCSc4ncccc43)cc2)cc1 | -36% | -7%
CC1CN(c2ccc(Cl)cc2)c2nc3c(c(=O)n(CC(=O)O)c(=O)n3C)n2C1 (stereo not drawn) | 0% | -21%
COc1ccc(Nc2cc(C(=O)NCc3ccccc3OC)c3ccccc3n2)cc1 | 0% | -53%
O=C(NCCC1=CCCCC1)c1ccc2c(c1)N(Cc1ccccc1)C(=O)c1ccccc1S2(=O)=O | -7% | -27%
COc1ccccc1C(=O)Nc1ccc(S(=O)(=O)Nc2ncccn2)cc1 | 3% | 1%
CC(C(=O)Nc1ccccc1C(F)(F)F)n1nnc2sc3c(c2c1=O)CCCC3 (stereo not drawn) | -15% | -13%
Cc1ccc2c(CC(=O)Nc3ccc(S(=O)(=O)N4CCCC(C)C4)cc3)coc2c1 (stereo not drawn) | ? | ?
CCc1ccc2occ(CC(=O)Nc3sc4c(c3C(=O)NCCOC)CCCC4)c2c1 | -30% | 3%
Cc1cccc(OCC(=O)Nc2ccc(C(=O)OCc3cc(=O)n4nc(C5CC5)sc4n3)cc2)c1 | -10% | -15%
CCCCNC(=O)c1cc(Sc2ccc(OCC)cc2)nc2ccccc12 | -18% | ?
CCOC(=O)c1cc(S(=O)(=O)Nc2cc(F)ccc2C)[nH]n1 | -8% | -12%
COc1ccc(NC(=O)N(Cc2ccco2)C2CCN(C(C)=O)CC2)c(OC)c1 | -15% | ?
CCCCN(C)CCCNC(=O)Cn1ncc2c3ccccc3n(Cc3cccc(Cl)c3)c2c1=O | -18% | ?
Cc1ccc2c(c1)c(=O)c(C(=O)c1ccc3c(c1)OCO3)cn2Cc1ccc(Cl)cc1 | ? | ?
COc1cc(C2c3c(oc4ccccc4c3=O)C(=O)N2c2ccccn2)cc(OC)c1OC (stereo not drawn) | -16% | 0%
Cn1c(=O)c2sccc2n2c(CCCC(=O)Nc3ccc(F)cc3F)nnc12 | -9% | 2%
Fc1ccc(N2CCN(c3ncnc4onc(-c5ccc(Cl)cc5)c34)CC2)cc1 | ? | -6%
COCCCn1c(=O)c2sccc2n2c(CCCC(=O)Nc3ccc(F)c(F)c3)nnc12 | -19% | -2%
Nc1nc2c(c(=O)[nH]1)N(C=O)[C@H](CNc1ccc(C(=O)N[C@@H](CCC(=O)O)C(=O)O)cc1)CN2 | 7% | ·
CCn1cc(/C=C(\NC(=O)c2ccc(OC)cc2)C(=O)NCCCn2ccnc2)c2ccccc21 | 0% | -29%
Cc1ccc(N2CC(NC(=O)C3CCCCC3)CC2=O)cc1C (stereo not drawn) | -25% | 27%
CCc1cccc(C)c1NC(=O)CN1C(=O)C2(SCC(=O)N2c2cccc(F)c2)c2ccccc21 (stereo not drawn) | -20% | ?
Cc1cccc(-n2cnc3cc(C(=O)NC4CCCCCC4)ccc32)c1 | ? | ?
Cc1ccc(CSc2nc3cccnc3n2Cc2ccc(C(=O)NCc3cccs3)cc2)cc1 | -10% | -12%
Cc1ccc(C)c(NC(=O)CCOc2ccccc2)c1 | 13% | -6%
N#C/C(=C/c1ccccc1Cl)c1nc2ccccc2c(=O)[nH]1 | -2% | -34%
Cc1cc2nc(-c3cccc(NC(=O)c4cccc5ccccc45)c3)oc2cc1C | 6% | ?
COc1ccc(CCNC(=O)c2c(Nc3ccccc3C)sc(C(=O)c3ccccc3)c2N)cc1OC | ? | -10%
CCOC(=O)c1cc(-c2ccccc2)n(CCCC(=O)Nc2ccc(C)cc2Cl)c1C | -38% | ?

Source: PubChem (National Center for Advancing Translational Sciences (NCATS))
